Menin MLL FP FL – qHTS Assay for Inhibitors Targeting the Menin-MLL Interaction in MLL Related Leukemias: Competition With Fluorescein Labeled MLL-derived Peptide; Fluorescence polarization, fluorescein-MLL peptide displacement from menin; FP activity change, % at 61.4 µM; 290,000 tested, under 10 active; AID 1766, 2009; inconclusive = falling polarisation curve, or a change in total fluorescence; inactive = total fluorescence flat and polarisation flat or rising; no compound was filed as active; the % refers to the polarisation; negative = inhibition;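 further: % of control where 0% means no effect; inhibitors lower the polarisation; unlabelled MLL peptide was the positive control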
gsp antagonist – qHTS for Antagonists of gsp, the Etiologic Mutation Responsible for Fibrous Dysplasia/McCune-Albright Syndrome: qHTS | gsp-mutant cells, cAMP HTRF, 30 min; control for the full effect not named in the record | Potency, µM (series often up to 76.9 µM), for inactives: at the top dose activity change, negative = inhibition, most hits filed as inhibitors | 340,000 compounds, 0.4% hits | AID 624288, 2012; active = falling curve of any shape with a large fitted effect; inconclusive = falling curve, mostly with a smaller effect; inactive = flat or rising curve; cell line not stated here;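 further: intracellular cAMP measured with PDE inhibitor Ro 20-1724 present during compound exposure; potency means the concentration at half of the fitted maximal effect; on the % scale 0 is the no-effect control and ±100 the full control effect; nearly all actives have a fitted effect of over 65% in size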
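HTRF cAMP measurement after 30 min RT detection following 30 min, 37C compound treatment alongside […] (added as 300 uM solution) in G418-selected cells seeded at 2000/well and grown 16–24 h.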
TRPML1 blocker – qHTS for Inhibitors of the Human Mucolipin Transient Receptor Potential 1 (TRPML1); TRPML1-inducible cells, Ca2+ dye fluorescence, FDSS; stronger effect = lower value; inhibition of EC80 agonist-evoked calcium signal; 390,000 compounds, 0.02% hits; activity change, negative = inhibition, % (test concentration not listed); in the data active means activity change below about -50%; inconclusive means about -30% to -50%; inactive means above about -30%;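 further: stimulus is agonist 54-4 at its EC80 concentration; on the % scale 0 is the no-effect control and ±100 the full control effect; compound concentration not given in the record; the text of the record puts the active cut at -80%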
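TRPML1-DL cells, Tet-induced overnight (~16 h, 37 °C) at 1,500 cells/well, were loaded with Ca8 no-wash dye plus quencher for 45-90 min at room temperature. Compounds were pinned during FDSS kinetic reading; agonist 54-4 at EC80 (4 uM final) then added.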
TRPV1 PAM – HTS Assay for Compounds that Act as Potentiators of the Vanilloid Receptor 1; 320,000 compounds, 0.02% hits; potentiation, % at 8.33 µM; Transient receptor potential cation channel subfamily V member 1 (Homo sapiens), Q8NER1; TRPV1-expressing cells, Fluo-8 calcium influx, capsaicin EC20 potentiation; host cell line not named in the record; control for the full effect not named in the record; AID 540277, 2011; active means potentiation above 80%; inconclusive means 30% to 80%; inactive means below 30%; further: 0% is about no effect
Target sequence (Q8NER1 whole entry, looked up): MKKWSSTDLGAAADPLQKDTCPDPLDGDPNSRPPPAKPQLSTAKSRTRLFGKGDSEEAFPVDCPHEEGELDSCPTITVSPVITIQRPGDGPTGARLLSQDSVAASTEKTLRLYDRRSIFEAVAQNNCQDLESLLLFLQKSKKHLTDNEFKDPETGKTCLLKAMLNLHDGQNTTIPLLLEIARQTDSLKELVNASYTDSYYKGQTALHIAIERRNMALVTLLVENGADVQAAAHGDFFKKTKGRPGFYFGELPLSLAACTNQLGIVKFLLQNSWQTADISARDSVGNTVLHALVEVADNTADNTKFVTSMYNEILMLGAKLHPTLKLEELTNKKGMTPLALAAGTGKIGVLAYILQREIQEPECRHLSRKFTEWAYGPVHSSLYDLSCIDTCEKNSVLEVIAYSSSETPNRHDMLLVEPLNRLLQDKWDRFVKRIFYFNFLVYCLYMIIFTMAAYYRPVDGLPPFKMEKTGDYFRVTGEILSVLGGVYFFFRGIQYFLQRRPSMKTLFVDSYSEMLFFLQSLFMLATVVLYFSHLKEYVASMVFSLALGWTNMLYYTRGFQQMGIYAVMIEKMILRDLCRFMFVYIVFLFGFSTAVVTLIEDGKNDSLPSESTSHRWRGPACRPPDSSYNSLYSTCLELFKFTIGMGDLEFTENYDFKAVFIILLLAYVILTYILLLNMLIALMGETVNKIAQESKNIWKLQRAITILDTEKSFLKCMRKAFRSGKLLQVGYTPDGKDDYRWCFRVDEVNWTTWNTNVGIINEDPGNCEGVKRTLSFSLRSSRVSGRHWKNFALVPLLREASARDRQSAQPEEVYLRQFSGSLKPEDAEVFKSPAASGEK
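Cells expressing TRPV1 were dye-loaded with Fluo-8 and read kinetically: 10 s baseline, 3 min after compound (agonist portion), then 2 min after EC20 capsaicin (allosteric enhancer portion). Calcium-bound dye fluorescence at 480/520 nm.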
ClpP mod – qHTS Assay for Activators of ClpP. ATP-dependent Clp protease proteolytic subunit (Bacillus subtilis (strain 168)), P80244. purified B. subtilis ClpP, FRET peptide cleavage, 20 min. Potency, µM (titrated, usually from 57.5 µM), without a hit: at the highest dose activity change, negative = active. 340,000 compounds, 1.9% hits. AID 651965, 2013; active = well fitted falling curve with a large enough effect; inconclusive = small, poorly fitted or top-dose-only effect; inactive = no such curve, though single readings can be large or run the other way; further: potency means the concentration at half of the fitted maximal effect; the source files actives as falling curves though it sought activators and does not explain the sign; nearly all actives have a fitted effect of over 65% in size; many hits overshoot -100%
Target sequence (P80244 whole entry, looked up): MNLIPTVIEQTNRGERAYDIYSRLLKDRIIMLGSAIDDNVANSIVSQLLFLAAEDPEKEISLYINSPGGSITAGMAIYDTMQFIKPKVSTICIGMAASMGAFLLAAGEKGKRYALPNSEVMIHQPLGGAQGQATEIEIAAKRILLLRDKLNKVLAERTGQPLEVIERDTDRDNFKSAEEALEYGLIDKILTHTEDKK
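Buffer: 100 mM Tris/HCl pH8, 100 mM KCl, 0.05% low protease BSA, 2.5% glycerol, 0.01% Tween-20. ClpP 10 microg/mL final; 20 min RT; delta FRET normalized to ADEP and DMSO controls.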
Sfp PPTase inh – qHTS Assay for Inhibitors of Bacillus subtilis Sfp phosphopantetheinyl transferase (PPTase); 310,000 compounds, 3.5% hits; 4'-phosphopantetheinyl transferase ffp (Bacillus subtilis), Q9F4F7; Biochemical Sfp PPTase activity, qHTS; AID 1490, 2009; Potency, µM, without a hit: max response, negative = inhibition, hits mostly inhibitors; active means well fitted inhibition curve with a large enough effect; inconclusive means small, poorly fitted or top-dose-only effect, or another doubt; inactive means no such curve, though single readings can be large or run the other way;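 further: the enzyme is Sfp with the accession as filed and its product quenches rhodamine fluorescence; potency means the concentration at half of the fitted maximal effect; 0% = enzyme reaction without inhibitor and -100% = no enzyme wells; top concentration of the series not given in the record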
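After 15 min at room temperature with compound, 15 nM Sfp received 5 uM rhodamine-CoA plus 12.5 uM BHQ-2-ybbR (50 mM Hepes pH 7.6, 10 mM MgCl2). Rate came from the fluorescence difference over 30 min, ex 525/em 598 nm.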
gsp agonist – qHTS for Agonist of gsp, the Etiologic Mutation Responsible for Fibrous Dysplasia/McCune-Albright Syndrome: qHTS; gsp mutant cells, cAMP HTRF, 30 min; control for the full effect not named in the record; Potency, µM (series often up to 76.9 µM), without a hit: at the top dose activation (cAMP increase), most hits filed as activators; 340,000 compounds, 0.13% hits; active = well fitted activation curve with a large enough effect; inconclusive = small, poorly fitted or top-dose-only effect, or another doubt; inactive = no such curve, though single readings can be large or run the other way; cell line not stated here;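 further: phosphodiesterase inhibitor Ro 20-1724 added with compounds to block cAMP breakdown; potency means the concentration at half of the fitted maximal effect; nearly all actives have a fitted effect of over 60% in size; about a fifth of the inactives were tested at one dose only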
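Cells stably selected in G418 were plated at 2000/well, grown 16-24 hr, then given compounds in DMSO with the PDE inhibitor […] (300 uM solution added) for 30 min at 37C; cAMP was read by HTRF.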
* marks the source's active call; other numbers are inactive results; ? = inconclusive; . = no result given; & = joins results of further samples; [ ] = another dose, or the depositor's remark.

SMILES	Menin MLL FP FL	gsp antagonist	TRPML1 blocker	TRPV1 PAM	ClpP mod	Sfp PPTase inh	gsp agonist
CCCCNS(=O)(=O)c1ccc(OCC(=O)N2CCN(Cc3ccc4c(c3)OCO4)CC2)cc1	.	-16%	-12	5	1.1%	11%	-4%
COc1ccc2c(c1OC)C(=O)OC2c1c(O)n(C2CCCCC2)c(=O)[nH]c1=O (stereo not given)	7.5	9%	10	13	-1.5%	3%	10%
CCC[C@H](N[C@@H](CCC)[C@H](O)c1ccccc1)[C@H](O)c1ccccc1	.	6%	34	.	.	.	-3%
CN1CCC2(CC1)NC(=O)C1=C(CN(C)CC1)N2	0.5	12%	2	13	-2.2%	2%	-6%
COC(=O)C1=C(c2ccc(OCc3ccccc3)cc2)C[C@@H]2CC[C@H]1N2C(=O)NCc1ccc([N+](=O)[O-])cc1	.	-6%	2	.	-0.9%	.	.
CCN1C(=O)C(=Cc2cc(C)n(C3CC3)c2C)C(=O)N(CC)C1=S	?	-4%	10	-2	2.2%	?	-7%
Cc1cccc(-n2c(O)c(/C=C/C=Nc3ccccc3)c(=O)[nH]c2=O)c1	?	11%	33	3	1.8%	4%	-27%
Cn1cc(Br)c(C(=O)Nc2ccc3c(C(F)(F)F)cc(=O)oc3c2)n1	.	3%	-2	-11	4.3%	10%	6%
CC12CC[C@H]3[C@@H](CCC4(O)C[C@H](O)CCC34/C=N/NC(=O)c3ccc(O)cc3)C1(O)CCC2C1=CC(=O)OC1 (stereo not given in full)	6.4	3%	-12	16	-7.7%	11%	-22%
CSC[C@H](NC(=O)COc1cc2c(c3oc(=O)c(C)c(C)c13)CCC(C)(C)O2)C(=O)O	1.3	-4%	3	-3	28µM*	15%	-15%[15.4 µM]
COC(=O)c1ccc(NS(=O)(=O)NC(=O)c2cn(C)c3ccccc23)cc1	-1.2	7%	-6	-9	-0.2%	23%	3%
CCOc1cc(CN2CCN(C(=O)Cc3ccccc3)CC2)ccc1OC	-0.5	0%	-20	1	0.8%	-13%	1%
Oc1ccc(O)c2c1C1(Cl)C(Cl)=C(Cl)C2(Cl)C1(Cl)Cl	.	2%	-2	.	.	.	14%
Cc1ccc(-n2c(=S)[nH]c3ccc(C)cc3c2=O)cc1	.	.	-20	.	0.1%	.	?
COc1ccc(NP(=O)(Oc2cccc(C)c2)Oc2cccc(C)c2)cc1OC	1.4	-15%	50	-19	1.6%	-11%	1%
CN1CCCC(C(=O)c2ccc(Cl)cc2)C1 (stereo not given)	0.8	18%	5	11	-2.1%	3%	-3%
Cc1c(C=C2C(=O)NC(=O)NC2=O)c(=O)n(-c2ccccc2)n1C	2.4	5%	0	0	-1.2%	3%	12%[15.4 µM]
O=[N+]([O-])c1ccc(N2CCOCC2)c2cccnc12	-1.1	8%	34	14	-2.4%	9%	?
O=C(N/N=C/c1c(O)n(CCc2ccc(F)cc2)c(=O)[nH]c1=O)c1ccncc1	?	0%	-15	21	.	-5%	-10%[15.4 µM]
C(#CCN1CCCC1)CN1CCCC1	0.8[24.8 µM]	7%	-6	0	.	-14%	11%[15.4 µM]
C=CCC1(Cc2ccsc2)C(=O)NC(=O)NC1=O	.	8%	-20	.	-0.4%	.	-23%
C[C@H]1CCC[C@H](O)CCCCCc2cc(O)cc(O)c2C(=O)O1	0.5&3.2	13%	50	3	-0.5%	15%&-1%	.
O=S(=O)(c1ccc(Cl)cc1)N1Cc2ccccc2-n2nncc2C1	.	.	5	.	-0.7%	.	31%
CC/C(=N\N1CCCCCC1)c1c(O)n(-c2ccccc2C)c(=O)[nH]c1=O	.	-31%	16	9	0.6%	6%	?
CCN1CCC(O)(c2ccccc2)C(C(=O)c2ccccc2)C1 (stereo not given)	.	-1%	10	.	0.2%	.	-114%[inhibitor]
C=C1N2CCC(CC2)C1(O)c1ccccc1C (stereo not given)	-0.7	4%	-9	-7	-1.7%	4%	8%
O=c1cccc2n1CC1CC2CN(S(=O)(=O)c2ccccc2)C1 (stereo not given)	1.9	1%	-16	-12	-1.2%	4%	-26%
Cc1nc2ccccc2c(=O)n1-c1ccc(F)cc1F	-1.8	-6%	1	0	.	16%	15%[15.4 µM]
CC12CC(=O)C3C(CCC4CC=CCC43C)C1CCC2=O (stereo not given)	.	10%	12	.	1.1%	.	18%
CCCCn1c(O)c(/C=N/N2CCCCC2c2cccnc2)c(=O)[nH]c1=S (stereo not given)	?	-4%	0	-7	.	-13%	14%
O=C1NC(=O)N(Cc2ccco2)C(=O)/C1=C/c1cccn1CCOc1ccccc1Cl	?	30%	10	3	1.5%	-10%	-8%
CC(=O)c1cccc(OCC(O)CN2CC=C(c3ccccc3)CC2)c1 (stereo not given)	-1.4	-1%	-7	5	-9.2%	-23%	2%
COC(=O)C1=C(c2ccccc2)C[C@@H]2CC[C@H]1N2C(=O)N1CCC(O)CC1	.	7%	-4	.	-0.5%	.	-1%
Cc1ccc(N2C(=O)NC(=O)/C(=C/c3ccc(-c4ccc(C(=O)O)c(Cl)c4)o3)C2=O)cc1	?	7%	-10	11	89%	32µM*	44%
CCOP(=S)(OCC)N1CCOCCOCCN(P(=S)(OCC)OCC)CCOCCOCC1	-3.5	-10%	-3	-10	.	14%	3%
O=c1[nH]c(O)c(N=Nc2ccc(S(=O)(=O)N3CCOCC3)cc2)c(=O)[nH]1	2.9	1%	2	9	.	10%	5%
CC(C)OP(=O)(OC(C)C)C(O)c1ccc(Br)cc1 (stereo not given)	0.9	-3%	5	-7	-6.6%	6%	-45%
CC(C)=CCSc1nnc([C@@H](N)Cc2c[nH]c3ccccc23)o1	-0.3	-12%	43	4	-2.8%	-1%	5%
CC(=O)CC(=O)C1C(=O)N(C)C(=O)N(C)C1=O	11	11%	24	-2	-1.4%	0%	7%[15.4 µM]
O=C(CCCc1ccccc1)NCCc1cnc[nH]1	-9.3	7%	.	?	-1.1%	-8%	?
NC(N)=Nc1ccc2[nH]c3c(c2c1)C[C@@]1(O)[C@H]2Cc4ccc(O)c5c4[C@@]1(CCN2CC1CC1)[C@H]3O5	-3.3	-22%	-7&-1	-1&-13	-0.9%	.	.
CC1([N+](=O)[O-])COP(=O)(Nc2ccc(Cl)cc2)OC1 (stereo not given)	.	-9%	-15	.	-0.8%	.	-16%
CC(=NCCC1=CCCCC1)c1c(O)n(-c2ccccc2)c(=O)[nH]c1=O	-0.9	-4%	-13	.	.	4%	0%[15.4 µM]
CCOP(=O)(OCC)C(O)c1ccc(OC)c(OC)c1 (stereo not given)	3.3	11%	13	5	-1.3%	20%	-16%
c1ccc(CC(NCc2ccco2)c2ccccc2)cc1 (stereo not given)	2.4	8%	-11	-19	.	-29%	-3%[15.4 µM]
CCC(CO)Nc1ccc([N+](=O)[O-])c2cccnc12 (stereo not given)	5.3	-18%	6	-2	-1.8%	22%	0%
COc1cc(C(=O)OC2C[C@H]3CC[C@@H](C2)N3C)ccc1O (stereo not given in full)	1.0	7%	-2	3	.	10%&18%	-46%[inhibitor]
CCOC(=O)c1ccc(NC(c2ccc(N(C)C)cc2)P(=O)(OC(C)C)OC(C)C)cc1 (stereo not given)	-0.8	-2%	22	-10	.	-6%	?
Cc1cc(C(=O)Nc2ccc3c(c2)OCCO3)nn1C(C)(C)C	2.1	1%	13	-14	-2.8%	6%	19%
O=C(C(=O)N1CCOCC1)c1cn(Cc2ccccc2Cl)c2ccccc12	-2.9	10%	15	4	-2.8%	17%	3%

(next part)
SMILES	Menin MLL FP FL	gsp antagonist	TRPML1 blocker	TRPV1 PAM	ClpP mod	Sfp PPTase inh	gsp agonist
CCc1ccc(C2=NN(CCC(=O)N3CCC4(CC3)OCCO4)C(=O)CC2)cc1	0.8	2%	2	6	.	5%	-17%[15.4 µM]
COc1ccc(C(C)=O)cc1CC(C(=O)c1ccc(C)c(C)c1)N(C)C (stereo not given)	0.9	0%	-6	-4	1.7%	5%	-6%[15.4 µM]
CCOc1cc(CNCCc2ccccc2F)ccc1OC	3.2	6%	-25	-8	0.8%	-11%	-22%
COc1ccccc1-c1n[nH]c(=S)n1Cc1ccco1	-0.8	.	.	0	.	20µM*	.
COC(=O)C1=C(c2cccc(OCc3ccccc3)c2)C[C@@H]2CC[C@H]1N2C(=O)NCCCOC(C)C	.	-4%	-3	-11	-2.2%	.	.
C/C(N)=C(/C#N)C(=O)CSc1nc2cc(Cl)ccc2c(=O)n1-c1ccc(C)cc1	0.1	?	1	-1	1.4%	?	-10%[15.4 µM]
CCCCn1c(NC(=O)c2ccco2)c(C(=O)OCC)c2nc3ccccc3nc21	12	7%	6	-19	?	50µM*	?
CCN(CC)c1ccc(N=Cc2c(O)n(Cc3ccccc3)c(=O)[nH]c2=O)cc1	?	8%&-16%	-11&47	-9&-5	1.5%&-1.2%	6%&-18%	-11%&2%
COC(=O)C1=C(c2cccc(OC)c2OC)C[C@@H]2CC[C@H]1N2C(=O)NC1CC1	.	9%	-1	.	-0.3%	.	-1%
COc1ccc(C(=O)NC(=S)N2C[C@H]3C[C@H](C2)c2cccc(=O)n2C3)cc1	1.4	1%	.	?	0.5%	?	.
CN1CCc2cc3c(cc2C1)OCO3	.	5%	19	.	-7.9%	.	-35%[inhibitor]
COc1cc(C=C2C(=O)NC(=O)NC2=O)ccc1OS(=O)(=O)c1ccccc1[N+](=O)[O-]	-8.2	-25%	-4	4	.	50µM*	25%
CNC(=O)c1cccn(Cc2cc(C(F)(F)F)cc(C(F)(F)F)c2)c1=O	-4.4	-19%	-7	-9	.	-12%	-2%[15.4 µM]

Only part of the results is shown; rates above refer to the full screens.
